VDR inhibitor: vitamin D3 receptor (human) inhibition; P11473; VDR-SRC2-3 peptide fluorescence polarization, 2 h; Potency, µM, for the others: max response, negative = inhibition, usual class: inhibitors; hit rate 0.93% among 400,000; AID 504847; active = well fitted inhibition curve with a large enough effect; inconclusive = small, poorly fitted or top-dose-only effect, or another doubt; inactive = no such curve, though single readings can be large or run the other way; also: series mostly up to about 120 µM
Target sequence (P11473 whole entry, looked up): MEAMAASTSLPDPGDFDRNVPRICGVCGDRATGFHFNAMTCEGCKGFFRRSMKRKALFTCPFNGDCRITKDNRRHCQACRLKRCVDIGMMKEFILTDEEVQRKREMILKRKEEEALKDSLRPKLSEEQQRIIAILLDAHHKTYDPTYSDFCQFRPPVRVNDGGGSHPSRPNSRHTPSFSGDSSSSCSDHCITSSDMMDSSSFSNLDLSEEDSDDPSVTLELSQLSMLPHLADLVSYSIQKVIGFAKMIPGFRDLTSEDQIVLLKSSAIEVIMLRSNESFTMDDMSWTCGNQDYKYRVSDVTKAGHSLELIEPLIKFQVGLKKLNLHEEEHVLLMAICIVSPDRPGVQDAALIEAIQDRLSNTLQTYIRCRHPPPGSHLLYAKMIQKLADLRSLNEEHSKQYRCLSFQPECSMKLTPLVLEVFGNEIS
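Signal is fluorescence polarization, reporting how far test compounds block the interaction of VDR with the SRC2-3 coregulator peptide after a 2 h room-temperature incubation.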
An asterisk follows results filed as active; ? = inconclusive; & = joins results of further samples; [ ] = remark or other dose. % is scaled to controls: 0 for no effect and ±100 for the full control effect; potency is read from the fitted curve at half-maximal effect. The list is partial. The share of hits here may be higher or lower than overall.

smiles | VDR inhibitor
CCCCN(CC)CCCNC(=O)c1ccc2c(c1)N(CC)C(=O)c1ccccc1S2(=O)=O | -10%
O=C(CN1C(=O)c2ccccc2S1(=O)=O)NCc1c(F)cccc1F | 11%
Cc1ccc(CNC(=O)c2cnccn2)cc1 | 8%
COc1ccc2[nH]c(=O)c(CN(Cc3cccs3)C(=S)NCC3CCCO3)cc2c1 (centres undefined) | ?
Cc1ccsc1CN(C(=O)c1ccc(Br)cc1)C1CCS(=O)(=O)C1 (centres undefined) | 8%
Cc1ccnc(NC(=O)CCCc2ccccc2)c1 | -20%
Cc1ccc(C(=O)NCCCNC(=O)Cc2ccc(Cl)cc2)cn1 | -27%
Cn1ccnc1SCc1ccc(Cl)cc1Cl | -9%
O=C(Nc1cc(OC(=O)C(F)(F)F)c2nonc2c1OC(=O)C(F)(F)F)C(F)(F)F | ?
Cc1cc(C(=O)Nn2c(-c3ccc(Br)cc3)nc3ccccc3c2=O)ccc1[N+](=O)[O-] | 10%
CCN(CC)CC1C(=O)N(c2ccc(OC)cc2)C1c1ccccc1 (centres undefined) | -14%
CN1/C(=C\C=C(/C#N)C(=O)Nc2ccc(Cl)cc2)C(C)(C)c2ccccc21 | -15%
COc1cccc(N2CCN(C(=O)c3cccc(N4C(=O)NC5CC4(C)Oc4c(OC)cccc45)c3)CC2)c1 (centres undefined) | -4%
Cc1ccc(-c2cc(C(=O)NCc3ccco3)no2)cc1 | -2%
CCOC(=O)c1cnc(NCc2ccc(OC)cc2OC)c2ccccc12 | 0%
COC(=O)c1ccccc1NC(=O)NCCc1ccc(OC)c(OC)c1 | -20%
CCOc1ccccc1NC(=O)CN1C(=O)COc2ccc(C)cc21 | -13%
N[C@@]1(C(=O)O)CO[C@H]2[C@H](C(=O)O)[C@H]21 | 14%
CCC(=O)Nc1c(C)nn(-c2ccc(C)c(C)c2)c1C | 18%
CCCC(c1nnnn1Cc1ccccc1)N1CCC(C(N)=O)CC1 (centres undefined) | 9%
CCC(C)NC(=O)C1CCCCN1S(=O)(=O)c1ccc(F)cc1 (centres undefined) | 11%
CCOC(=O)c1cc2ccccc2nc1C | -1%
Clc1cccc(CN2C3=NCCCN3c3ccccc32)c1 | -4%
O=C(OCC(=O)c1ccc[nH]1)C1=COCCO1 | 12%
CC(C)(C)c1ccc(NC(=O)CCNC(=O)c2ccco2)cc1 | 6%
Nc1ncc([N+](=O)[O-])c(Oc2ccccc2F)n1 | 8%
CCOc1ccccc1N(C(=O)Nc1ccc(Cl)cc1)C1=NCCS1 | 15%
CCCC(=O)Nc1sc(C)c(-c2ccc(C(C)CC)cc2)c1C#N (centres undefined) | 5%
CCc1nc2ccccc2c(=O)n1NC(=O)c1c(O)c2ccccc2[nH]c1=O | -14%
COc1cc(NS(=O)(=O)c2ccc(NC(=S)NC(=O)c3ccc(Br)cc3)cc2)ncn1 | -8%
CC(=O)Nc1ccc(S(=O)(=O)N(C)CC(=O)OCC(=O)N2CC(C)OC(C)C2)cc1 (centres undefined) | 6%
COc1ccc(C(=O)Nc2ccc(Cn3ccnc3)cc2)cc1OC | -13%
COc1ccc(CNC(=O)c2cc(=O)c3cc(C)c(C)cc3o2)cc1 | -13%
COc1ccc(-c2nc(CS(=O)(=O)CC(=O)NC3CCC(C)CC3)c(C)o2)cc1 (centres undefined) | 44%[activator]
COc1ccc(Cl)cc1NC(=O)CN(C)S(=O)(=O)c1cccs1 | 2%
CCOC(=O)c1c[nH]c2c3c(ccc2c1=O)CCCC3 | 7%
O=C(CCNC(=O)c1ccccc1Cl)Nc1ccc2c(c1)OCO2 | -11%
C=CC[C@@H](CC(=O)N(CCO)Cc1ccccc1)C(=O)N[C@H](COC(=O)[C@H](CC=C)CC(=O)OC(C)(C)C)Cc1c[nH]c2ccccc12 | 15%
Cc1cccc(CS(=O)(=O)Cc2ccc(C(=O)NCCc3ccccc3)o2)c1 | -18%&1%
C/C(N)=C(/C#N)C(=O)CSc1nnnn1-c1ccc(C)cc1C | 8%
COCc1nn2c(N)c(C#N)cnc2c1-c1ccccc1 | -6%
O=C(CSc1ccc(Cl)cc1)c1ccco1 | ?
Cc1ccc(C(=O)Nc2ccccc2-c2ccccc2)cc1S(=O)(=O)Nc1cccc(C)c1C | -3%
O=C(CN1C(=O)CSc2ccc(S(=O)(=O)N3CCOCC3)cc21)NCc1ccc(F)cc1 | 2%
C=CCOc1ccc(C2NC(=S)NC(c3ccccc3)=C2C(C)=O)cc1OC (centres undefined) | -9%
Cc1ccc(C(=O)O)c(C(=O)Nc2nc(C)cs2)c1 | -1%
O=C(NCCc1ccccn1)c1ccc(S(=O)(=O)N2CCCCCC2)cc1 | -14%
Cn1nnnc1SCC(=O)N1CCCc2ccccc21 | -5%
CN(C)c1cccc2c(C=C(C#N)C#N)ccc(N(C)C)c12 | -13%
CCOc1ccc(CCNC(=O)c2cc3c(=O)n(CC)c4ccccc4c3s2)cc1OCC | 0%
CCOC(=O)N1CCC(Nc2c(N3CCN(c4cccc(C(F)(F)F)c4)CC3)c(=O)c2=O)CC1 | 5%
Cc1ccc(C)n1-c1sccc1C(=O)O | 31%[activator]
Cc1cnc(C(=O)OCC(=O)Nc2ncc(Cl)cc2Cl)cn1 | -3%
COCc1cc(C)nc2sc(C(=O)OC(C)C)c(N)c12 | -3%
COc1cc(C(=C(CC(=O)O)C(=O)O)c2ccc3c(c2)OCO3)cc(OC)c1OC | -5%
COC(=O)c1ccc(OCC2c3cc(OC)c(OC)cc3CCN2C(=O)C(C)C)cc1 (centres undefined) | 12%
CN(CCNC(=O)c1ccc(CS(=O)(=O)c2ccc(Br)cc2)o1)CCc1ccccc1 | -19%
CCn1c(C)cc2c(c1=O)C(c1ccccc1)C(C(=O)OC)=C(N)O2 (centres undefined) | 10%
COC(=O)c1[nH]c2cc(OC)ccc2c1NC(=O)c1ccc2c(c1)OCO2 | 6%
O=C(/C=C/c1cccs1)Nc1sc2c(c1C(=O)O)CCCC2 | 8%

Following part.
Structure	VDR inhibitor
CSc1ccccc1C(=O)N1CCN(S(=O)(=O)c2sc(C(=O)O)c(C)c2C(=O)O)CC1	-9%
NCCCN1CCOCC1	-4%
Cc1cc(NC(=O)c2oc3ccccc3c2C)ccc1-n1cnnn1	2%
COc1cc(/C=C2\CCCc3c2nc2ccccc2c3C(=O)O)cc([N+](=O)[O-])c1O	-24%
Cc1ccc2nc(Cl)c3cc(C(=O)NCCCN4CCC(C)CC4)sc3c2c1	-12%
Cc1c(NC(=O)CSc2ncccn2)c(=O)n(-c2ccccc2)n1C	4%
Cn1c(-c2c(N)n(CCc3ccccc3)c3nc4ccccc4nc23)nc2ccccc21	0%
O=C1CSC(c2cccc(F)c2)N1c1c(F)cccc1F (centres undefined)	-12%
C/C(=N/N=C1/NC(=O)CC(C(=O)Nc2ccccc2)S1)c1cccs1 (centres undefined)	3%
COC(=O)CN1C(=O)COc2ccc(S(=O)(=O)N3CCCCCC3)cc21	-13%
O=C(Nc1nnc(C2CC2)s1)C1CCCCC1	-6%
COc1ccc(C(=O)NC(=S)NCc2cccnc2)cc1OC	18%
COc1cc(NC(=O)CCc2nnc3ccc(N4CCC5(CC4)OCCO5)nn23)cc(OC)c1	-6%
C/C(=N\NS(=O)(=O)c1ccccc1)c1cccc(NC(=O)c2cccc(Cl)c2)c1	-3%
CC(C)CNS(=O)(=O)c1ccc(CCC(=O)N2CCN(Cc3ccccc3)CC2)cc1	-4%
Cc1ccccc1CNC(=O)c1nn(-c2ccccc2F)nc1CO	-5%
CCOC(=O)C1CCCN(C(=O)c2cc(S(=O)(=O)N3CCCCC3)ccc2C)C1 (centres undefined)	-5%
CCOc1ccc(N=C2NC(=O)SC2CC(=O)OC)cc1 (centres undefined)	-2%
CCOC(=O)c1cc(S(=O)(=O)N2CCN(c3cccc(C)c3C)CC2)[nH]n1	9%
CC1(c2ccccc2)C(C#N)C(=O)NC(=O)C1C#N (centres undefined)	-16%
COC(=O)c1sc(NC(=O)c2ccncc2)nc1C	-12%
O=C(CN1C(=O)CSc2cc(S(=O)(=O)N3CCCCCC3)ccc21)NCCc1ccccc1	3%
Cn1nc(-c2ccc(OCC(=O)Nc3cccc(C(F)(F)F)c3)cc2)c2ccccc2c1=O	-7%
COc1ccc(C)cc1NC(=O)Cc1ccc(NC(=O)N2CCCCc3ccccc32)cc1	-5%
Cc1nc(N2CCN(C(=O)c3cccs3)CC2)c2c3c(sc2n1)CCCC3	-22%
Cc1ccccc1NC(=O)C(C)c1cccc(C(=O)c2ccccc2)c1 (centres undefined)	2%
CC(Oc1ccc(F)cc1)C(=O)Nc1cc(S(=O)(=O)N2CCCCC2)ccc1N1CCN(C)CC1 (centres undefined)	-1%
Cc1ccc(-c2nc(N/N=C/c3cccc([N+](=O)[O-])c3)c3ccccc3n2)cc1	3%
CCC(Oc1ccccc1)C(=O)Nc1ccc(S(=O)(=O)Nc2cnc3ccccc3n2)cc1 (centres undefined)	-5%
CCOc1ccc(NS(=O)(=O)c2ccc(OCC(=O)NCc3ccncc3)cc2)cc1	-13%
CCOc1ccccc1/C=C(/C#N)C(N)=O	-6%
CN(C)C(=O)CSc1nnc(Cc2ccc([N+](=O)[O-])cc2)o1	3%
C[C@@H]1CN([C@H](C)CO)C(=O)c2cc(NC(=O)Nc3ccc(C(F)(F)F)cc3)ccc2O[C@H]1CN(C)S(=O)(=O)c1ccccc1	-14%
Cc1ccc2c(c1)N(Cc1cccc(C#N)c1)C=NS2(=O)=O	-5%
Cc1ccc(S(=O)(=O)NCC(=O)OCc2cc(=O)oc3c(C)c(C)ccc23)cc1C	-8%
CN(C)CC/C=C1/c2ccccc2Sc2c(O)cc(Cl)cc21	-23%
N#Cc1cccc(C(=O)Nc2cc(S(=O)(=O)N3CCOCC3)ccc2N2CCCC2)c1	23%
CCn1c(-c2nonc2NC(=O)c2ccccc2)nc2ccccc21	-14%
Cc1ccc(S(=O)(=O)Cc2ccc(C(=O)NCCc3ccccc3)o2)cc1	11%
CCS(=O)(=O)c1cccc(C(=O)Nc2ccc(-c3nc4ccccc4s3)c(O)c2)c1	10%
CCCN1CCC(=O)N(C(CSc2ccc(OC)cc2)CC(C)C)CC1 (centres undefined)	-21%
CC(NCC(=O)NC(=O)NCCC1=CCCCC1)c1ccc(S(N)(=O)=O)cc1 (centres undefined)	4%
CCOc1ccc(C(=O)Nc2c(C)nc(Nc3ccccc3)nc2Nc2ccccc2)cc1OCC	-16%
N#C/C=C(/N)N1CCN(c2ccc(Cl)c(Cl)c2)CC1	0%
CCN(C(=O)CSc1n[nH]c(-c2cc(Cl)ccc2OC)n1)C1CCS(=O)(=O)C1 (centres undefined)	0%
COc1ccc(NC(=O)Nc2c(O)ccc3ccccc23)cc1	-12%
O=C1CN(S(=O)(=O)c2cccc(C(=O)O)c2)c2ccccc2N1	-13%
Clc1ccc(C2CC(c3cccs3)n3ncnc3N2)cc1 (centres undefined)	4%
CCC1CCCCN1CCCNC(=O)C1CCN(c2ncnc3c2nc2n3CCCCC2)CC1 (centres undefined)	4%
O=C(Oc1ccc2ccccc2c1)C1CCC1	-8%
O=S(=O)(Nc1ccc2c(c1)OCCO2)c1cccs1	-1%
CC1(C)CC(CC(=O)Nc2nccs2)(c2ccccc2)CCO1 (centres undefined)	-15%
CCCCn1c(N)c(N(CCC)C(=O)C2CCCC2)c(=O)[nH]c1=O	-10%
O=C(C1CCC1)N1CCN(S(=O)(=O)c2ccccc2)CC1	27%
NCCC(=O)c1ccccc1N	?
COc1ccc(Nc2oc(-c3ccc(Cl)cc3)nc2C#N)cc1	-11%
CCOc1ccc(NC(=O)CN2CCN(C3c4ccccc4-c4ccccc43)CC2)cc1	2%
CC(=O)c1ccc(NC(=O)C2CCN(S(=O)(=O)c3cccc4nonc34)CC2)cc1	13%
C/C=C\C=C/C(=O)Nc1cccc(C2=NOC3(C2)C[C@H](C(N)=O)N(C(=O)c2ccc(OC)cc2)C3)c1 (some centres undefined)	?
Cc1ccccc1NC(=O)COc1ccc2oc3c(c2c1)CCCC3	-13%

A draw from above in order of number of heavy atoms, low to high:
Structure	VDR inhibitor
COc1ccc(NC(=O)Nc2c(O)ccc3ccccc23)cc1	-12%
CCn1c(-c2nonc2NC(=O)c2ccccc2)nc2ccccc21	-14%
N#Cc1cccc(C(=O)Nc2cc(S(=O)(=O)N3CCOCC3)ccc2N2CCCC2)c1	23%

The list continues:
Structure	VDR inhibitor
CCCCSc1nnc(-c2ccccc2N)c(=O)[nH]1	-3%
CCOc1ccc(-c2n[nH]c(C)c2Oc2ccccc2OC)c(O)c1	-6%
Cc1oc(-c2ccc(C(=O)N(C)Cc3ccccc3)cc2)nc1CN1CCc2ccccc21	12%
CC(=O)C1(C)CCC2C3C=C(C)C4=CC(=O)CCC4(C)C3CCC21C (centres undefined)	?
CCC(=O)N1c2ccccc2CC1C(=O)NCc1ccc(CC)cc1 (centres undefined)	10%

Filtered by structure, the entries above with a cyano group
Structure	VDR inhibitor
CN1/C(=C\C=C(/C#N)C(=O)Nc2ccc(Cl)cc2)C(C)(C)c2ccccc21	-15%
CCCC(=O)Nc1sc(C)c(-c2ccc(C(C)CC)cc2)c1C#N (centres undefined)	5%
C/C(N)=C(/C#N)C(=O)CSc1nnnn1-c1ccc(C)cc1C	8%
COCc1nn2c(N)c(C#N)cnc2c1-c1ccccc1	-6%
CN(C)c1cccc2c(C=C(C#N)C#N)ccc(N(C)C)c12	-13%
CC1(c2ccccc2)C(C#N)C(=O)NC(=O)C1C#N (centres undefined)	-16%
CCOc1ccccc1/C=C(/C#N)C(N)=O	-6%
Cc1ccc2c(c1)N(Cc1cccc(C#N)c1)C=NS2(=O)=O	-5%
N#Cc1cccc(C(=O)Nc2cc(S(=O)(=O)N3CCOCC3)ccc2N2CCCC2)c1	23%
N#C/C=C(/N)N1CCN(c2ccc(Cl)c(Cl)c2)CC1	0%
COc1ccc(Nc2oc(-c3ccc(Cl)cc3)nc2C#N)cc1	-11%

Source: PubChem BioAssay
